From PubChem BioAssay
Six1-Eya2 blk: inhibitors of human Six1/Eya2 interaction | Q15475+O00167 | 0.56% of 360,000 active | AlphaScreen GST-Six1/His-Eya2 binding, biochemical; stronger effect = lower value; control for the full effect not named in the record | activity change, % (concentration not given with the values); in the data active = activity change below about -65%; inconclusive = about -30% to -65%; inactive = above about -30%; note: % is set by controls: 0 for no effect and ±100 for the full control effect
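Compounds are tested against tagged Six1 and Eya2 proteins bridged by glutathione donor and nickel acceptor beads; after a one-hour incubation at 37 °C without light, AlphaScreen emission is recorded.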
CtBP-E1A inh: CtBP/E1A binding inhibition. activity change, % (no concentration beside the values). AlphaScreen GST-E1A/His-CtBP binding, 1536-well; stronger effect = lower value; control for the full effect not named in the record. 0.49% of 340,000 active; in the data active means activity change below about -65%; inconclusive means about -30% to -65%; inactive means above about -30%; note: % is set by controls: 0 for no effect and ±100 for the full control effect; compound concentration not given in the record
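GST-E1A and His-tagged CtBP (125 nM each as 5X stock) were preincubated with pin-transferred compound for 2 h at 37 °C in the dark, then glutathione donor and nickel acceptor beads were added for 1 h before AlphaScreen reading.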
D2 agonist: human D2 receptor agonism in beta-arrestin assay. P14416. DiscoveRx PathHunter D2 beta-arrestin, luminescence, 90 min; 100% = 57 uM dopamine signal. activation, % (test concentration not listed). 0.084% of 360,000 active. AID 624465; in the data active = activation above about 40%; inconclusive = about 15% to 40%; inactive = below about 15%; note: compound concentration not given in the record; the text of the record calls up to 30% inactive
Target sequence (P14416 whole entry, looked up): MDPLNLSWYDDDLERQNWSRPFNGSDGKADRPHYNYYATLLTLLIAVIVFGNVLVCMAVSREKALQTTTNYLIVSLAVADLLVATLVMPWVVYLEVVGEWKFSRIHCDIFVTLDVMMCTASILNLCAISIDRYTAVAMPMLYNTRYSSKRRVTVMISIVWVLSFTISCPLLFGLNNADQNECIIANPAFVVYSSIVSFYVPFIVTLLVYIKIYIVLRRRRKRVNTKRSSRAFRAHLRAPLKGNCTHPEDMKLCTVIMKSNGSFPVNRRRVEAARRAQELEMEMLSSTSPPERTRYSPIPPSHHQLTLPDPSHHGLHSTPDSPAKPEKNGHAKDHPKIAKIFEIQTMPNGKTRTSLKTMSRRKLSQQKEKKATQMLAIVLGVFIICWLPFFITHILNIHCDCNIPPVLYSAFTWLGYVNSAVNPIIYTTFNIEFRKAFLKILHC
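DiscoveRx PathHunter D2 beta-arrestin cells (2,100/well) attached overnight, then compound-stimulated 90 min at 37 C in HBSS/10 mM HEPES/0.1% Tween-20 buffer; beta-galactosidase complementation read by luminescence after 1 h at ambient temperature. Dopamine 57 uM final (EC100) as control.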
D2 PAM: potentiates the human D2 dopamine receptor allosterically | P14416 | DiscoveRx D2 beta-arrestin cells, luminescence, 90 min; 100% = 57 uM dopamine signal | potentiation, % (concentration not given with the values) | 0.23% of 360,000 active | AID 624464; active = potentiation of 50% or more; inconclusive = 30% to 50%; inactive = 30% or less;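 note: compound concentration not given in the record; tested on top of an EC20 dose of dopamine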
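PathHunter beta-arrestin assay in DiscoveRx D2 cells. Compounds were added with an EC20 of dopamine (50 nM final) for 90 min at 37 deg C. Luminescence was read 1 h after detection reagent, with 57 uM dopamine as the EC100 control.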
gsp antag: gsp mutant antagonism; gsp-mutant cells, cAMP HTRF, 30 min; control for the full effect not named in the record; Potency, µM (series often up to 76.9 µM), for the others: top-dose activity change, negative = inhibition, hits mostly inhibitors; 0.4% of 340,000 active; active = falling curve of any shape with a large fitted effect; inconclusive = falling curve, mostly with a smaller effect; inactive = flat or rising curve; cell line not stated here;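 note: intracellular cAMP measured with PDE inhibitor Ro 20-1724 present during compound exposure; potency is the fitted concentration of half-maximal effect; % is set by controls: 0 for no effect and ±100 for the full control effect; nearly all actives have a fitted effect of over 65% in size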
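HTRF cAMP read-out (cAMP-d2 plus anti-cAMP antibody-K in lysis buffer, 30 min RT). Before lysis, cells are exposed to compounds with […] for 30 min at 37C in DPBS containing Ca/Mg, BSA and Tween 20.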
gsp ag: agonists of gsp mutant (McCune-Albright syndrome) | gsp mutant cells, cAMP HTRF, 30 min; control for the full effect not named in the record | Potency, µM (titrated, usually from 76.9 µM), inactives show top-dose activation (cAMP increase), hits mostly activators | 0.13% of 340,000 active; active = well fitted activation curve with a large enough effect; inconclusive = small, poorly fitted or top-dose-only effect, or another doubt; inactive = no such curve, though single readings can be large or run the other way; cell line not stated here;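 note: phosphodiesterase inhibitor Ro 20-1724 added with compounds to block cAMP breakdown; potency is the fitted concentration of half-maximal effect; nearly all actives have a fitted effect of over 60% in size; about a fifth of the inactives were tested at one dose only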
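Cells stably selected in G418 were plated at 2000/well, grown 16-24 hr, then given compounds in DMSO with the PDE inhibitor […] (300 uM solution added) for 30 min at 37C; cAMP was read by HTRF.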
Starred values were filed as active, the others as inactive; [ ] = remark or other dose.

Screening Cc1ccc(C(=O)Nc2ccc(N3CCOCC3)c3nonc23)cc1[N+](=O)[O-] returned Six1-Eya2 blk -8, CtBP-E1A inh -9, D2 agonist -1.1, D2 PAM -5, gsp antag -12% and gsp ag 13%.
For O=C(CCCCCN1C(=O)c2cccc3cccc(c23)C1=O)NCCCO the results were Six1-Eya2 blk -14, CtBP-E1A inh -5, D2 agonist -0.7, D2 PAM -3, gsp antag -1% and gsp ag 1%[15.4 µM].
Cc1nc(SCC(=O)N2CCCc3ccccc32)c2oc3ccccc3c2n1 was read as Six1-Eya2 blk 4, CtBP-E1A inh -9, D2 agonist -2.0, D2 PAM -1, gsp antag -3% and gsp ag -1%.
Screening COc1ccc2c(c1OC)C(=O)N(c1ncn[nH]1)C2 returned Six1-Eya2 blk -20, CtBP-E1A inh -19, D2 agonist -0.9, D2 PAM 1, gsp antag 13% and gsp ag -14%.
Screening NC(=S)Nc1cccc2[nH]ccc12 returned Six1-Eya2 blk 2, D2 agonist -5.2, D2 PAM -6, gsp antag 2% and gsp ag -122%[inhibitor].
`COc1cccc(CNC(=O)CCS(=O)(=O)c2ccc3c(c2)CC(C)N3C(=O)C2CC2)c1` (centres undefined) gave Six1-Eya2 blk -5, CtBP-E1A inh -6, D2 agonist 7.1, D2 PAM -5, gsp antag -11% and gsp ag -12%.
For O=C(NC(Cc1ccccc1)c1nc2ccccc2[nH]1)c1cccc([N+](=O)[O-])c1 (centres undefined) the results were Six1-Eya2 blk -16, CtBP-E1A inh -11, D2 agonist 1.5, D2 PAM -7, gsp antag -12% and gsp ag -17%[15.4 µM].
For N#Cc1c(-c2cccs2)cc(-c2ccccn2)nc1N the results were Six1-Eya2 blk -14, CtBP-E1A inh -7, D2 agonist -0.4, D2 PAM -2, gsp antag -7% and gsp ag 3%.
`COC(=O)c1sccc1NC(=S)N1CCN(c2cccc(C)c2C)CC1` gave Six1-Eya2 blk -13, CtBP-E1A inh 11, D2 agonist -2.9, D2 PAM -15, gsp antag -8% and gsp ag 2%.
For CC(=O)OC1COC(n2ccc3cc([N+](=O)[O-])ccc32)C(OC(C)=O)C1OC(C)=O (centres undefined) the results were Six1-Eya2 blk 0, CtBP-E1A inh 3, D2 agonist -2.5, D2 PAM -27, gsp antag 4% and gsp ag -19%.
For CC(C)(C)c1ccc(-c2cnco2)cc1 the results were Six1-Eya2 blk -2, CtBP-E1A inh 4, D2 agonist -3.7, D2 PAM -3, gsp antag 0% and gsp ag inconclusive.
For Cc1[nH]n(-c2ccccc2)c(=O)c1N=Nc1cccc(S(=O)(=O)N2CCOCC2)c1 the results were Six1-Eya2 blk -15, CtBP-E1A inh 0, D2 agonist -1.6, D2 PAM -4, gsp antag -3% and gsp ag -56%[inhibitor].
Cc1ccc(C)c(N=C2NC(=O)CS2)c1 was read as Six1-Eya2 blk 2, CtBP-E1A inh 1, D2 agonist -3.3, D2 PAM -5, gsp antag 2% and gsp ag -9%.
Screening Cc1ccc(C)c(OC(=O)CN2C(=O)c3ccccc3C2=O)c1 returned Six1-Eya2 blk -11, CtBP-E1A inh 0, D2 agonist -0.6, D2 PAM -6, gsp antag -32% and gsp ag -13%[15.4 µM].
For Cc1ccc(C(=O)c2ccc(N3CCN(C)CC3)c([N+](=O)[O-])c2)cc1 the results were Six1-Eya2 blk -23, CtBP-E1A inh -19, D2 agonist -3.7, D2 PAM -33, gsp antag 3% and gsp ag 13%.
`CC(C)CCn1c(SC(C)C(=O)NC2CC2)nc2ccccc2c1=O` (centres undefined) gave Six1-Eya2 blk -3, CtBP-E1A inh 7, D2 agonist -2.1, D2 PAM 9, gsp antag 3% and gsp ag -3%.
Cc1ccc2cc(CN(c3ccccc3C)S(=O)(=O)c3ccccc3)c(=O)[nH]c2c1 was read as Six1-Eya2 blk 4, CtBP-E1A inh 2, D2 agonist 2.3, D2 PAM -10, gsp antag -16% and gsp ag -37%[inhibitor].
`CCCCC(CC)C(=O)Nc1ccc(Cl)cn1` (centres undefined) gave Six1-Eya2 blk 11, CtBP-E1A inh 8, D2 agonist 0.5, D2 PAM -16, gsp antag 4% and gsp ag 14%.
Screening CCOCCCNC(=O)Cc1ccc(Br)cc1 returned Six1-Eya2 blk 2, CtBP-E1A inh 3, D2 agonist -3.1, D2 PAM -20, gsp antag 9% and gsp ag -14%.
Cc1[nH]c2ccccc2c1C(=O)C(=O)NC1CC(=O)N(c2ccc(F)cc2)C1 (centres undefined) was read as Six1-Eya2 blk 2, CtBP-E1A inh 2, D2 agonist 1.4, D2 PAM 14, gsp antag 8% and gsp ag -3%[15.4 µM].
`Cc1ccc(S(=O)(=O)N(C)CC(=O)OCC(=O)Nc2ccccc2)cc1` gave Six1-Eya2 blk 4, CtBP-E1A inh -14, D2 agonist -0.3, D2 PAM -11, gsp antag -21% and gsp ag inconclusive.
For CCN(CC)C(=O)c1c[nH]c2ccc(S(=O)(=O)Nc3cc(C)cc(C)c3)cc2c1=O the results were Six1-Eya2 blk -1, CtBP-E1A inh -1, D2 agonist -1.5, D2 PAM 20, gsp antag 0% and gsp ag -8%.
`O=[N+]([O-])c1cccc(C=NN=C2c3ccccc3-c3ccccc32)c1` gave Six1-Eya2 blk -17, CtBP-E1A inh -16, D2 agonist 5.8, D2 PAM 6, gsp antag -3% and gsp ag 6%.
`COc1cccc(-c2cnc3c(NC(C)=O)cc(-c4cccc(C(=O)NCCO)c4)cn23)c1` gave Six1-Eya2 blk -20, CtBP-E1A inh -26, D2 agonist 5.2 and D2 PAM -7.
`Cc1cc2cc(C=C(C#N)C#N)c(Cl)nc2cc1C` gave Six1-Eya2 blk -9, CtBP-E1A inh -4, D2 agonist 4.6, D2 PAM 15, gsp antag -17% and gsp ag inconclusive.
For CCOC(=O)c1cc(C)sc1N1C(=O)C2C3C=CC(C3)C2C1=O (centres undefined) the results were Six1-Eya2 blk 7, CtBP-E1A inh 7, D2 agonist 0.3, D2 PAM -6, gsp antag 8% and gsp ag 14%.
For CC(=O)N/N=C(/C)c1ccc(NC(=O)c2csc(C)c2C)cc1 the results were Six1-Eya2 blk -6, CtBP-E1A inh -18, D2 agonist -3.2, D2 PAM 3, gsp antag -7% and gsp ag 8%.
COc1ccc(NC(=O)CSc2nc(C(C)C)nc3c2c(=O)n(C)c(=O)n3C)c(OC)c1 was read as Six1-Eya2 blk 5, CtBP-E1A inh 3, D2 agonist -3.6, D2 PAM -1, gsp antag 5% and gsp ag 5%.
For CCOc1ccccc1CNCCNCC(C)O (centres undefined) the results were Six1-Eya2 blk -8, CtBP-E1A inh -1, D2 agonist -0.8, D2 PAM -5, gsp antag 12% and gsp ag 17%.
CCn1c(SCC(=O)N2CCCC2)nc2c(c1=O)SCC2 was read as Six1-Eya2 blk 0, CtBP-E1A inh 1, D2 agonist -0.7, D2 PAM -6, gsp antag -5% and gsp ag 21%.
`O=C1CC(N2CCOCC2)C(=O)N1c1ccc2c(c1)OCO2` (centres undefined) gave Six1-Eya2 blk 6, CtBP-E1A inh 1, D2 agonist 3.2, D2 PAM -10, gsp antag 4% and gsp ag -44%[inhibitor].
Screening COc1ccc(NC(=O)CC(C)c2ccccc2)cc1S(=O)(=O)N1CCOCC1 (centres undefined) returned Six1-Eya2 blk 0, D2 agonist -0.5, D2 PAM 4, gsp antag -2% and gsp ag 6%.
`COc1ccc2c(c1)[nH]c1c(=O)n(CCN3CCOCC3)cnc12` gave Six1-Eya2 blk -5, CtBP-E1A inh 0, D2 agonist -3.6, D2 PAM 0, gsp antag -3% and gsp ag 1%[15.4 µM].
For COc1ccc(OCC(O)COc2ccc(OC)cc2)cc1 the results were Six1-Eya2 blk -8, CtBP-E1A inh -2, D2 agonist -3.1, D2 PAM 0, gsp antag -3%[15.4 µM] and gsp ag -4%.
O=C(NCC(c1ccco1)N1CCCC1)c1cccc(NS(=O)(=O)c2ccccc2)c1 (centres undefined) was read as Six1-Eya2 blk 2, CtBP-E1A inh 1, D2 agonist -3.2, D2 PAM -11, gsp antag 9% and gsp ag 7%.
`O=C(c1ccc(Cl)cc1)C1CCCN(Cc2ccc(Oc3ncccn3)cc2)C1` (centres undefined) gave Six1-Eya2 blk -23, CtBP-E1A inh -2, D2 agonist -3.5, D2 PAM -20, gsp antag 5% and gsp ag -4%.
`NS(=O)(=O)c1cc(C(=O)OCC(=O)Nc2ccc3c(c2)OCO3)ccc1Cl` gave Six1-Eya2 blk -12, CtBP-E1A inh 2, D2 agonist -3.4, D2 PAM 5, gsp antag 0% and gsp ag 15%[15.4 µM].
COC(=O)c1cccc(NC(=O)C2COc3ccccc3O2)c1C (centres undefined) was read as Six1-Eya2 blk 1, CtBP-E1A inh 5, D2 agonist -5.4, D2 PAM -7, gsp antag -1% and gsp ag 9%[15.4 µM].
COc1ccc(OCc2nc(-c3ccc(F)c(F)c3)cs2)cc1 was read as Six1-Eya2 blk 7, CtBP-E1A inh 9, D2 agonist 8.5, D2 PAM -3, gsp antag 9% and gsp ag 19%.
For COc1ccc(N(CC(O)Cn2c(C)nc3ccccc32)S(=O)(=O)c2ccc(C)cc2)cc1 (centres undefined) the results were Six1-Eya2 blk -4, CtBP-E1A inh -7, D2 agonist -0.3, D2 PAM -7, gsp antag 10% and gsp ag -9%.
For COc1ccc(CNC(=O)Cc2nn(C)c(=O)c3ccccc23)cc1 the results were Six1-Eya2 blk 2, CtBP-E1A inh 4, D2 agonist 0.9, D2 PAM -6, gsp antag -5%[15.4 µM] and gsp ag 1%.

Grouped by structure, the compounds so far containing a nitro group on carbon
Screening Cc1ccc(C(=O)Nc2ccc(N3CCOCC3)c3nonc23)cc1[N+](=O)[O-] returned Six1-Eya2 blk -8, CtBP-E1A inh -9, D2 agonist -1.1, D2 PAM -5, gsp antag -12% and gsp ag 13%.
For O=C(NC(Cc1ccccc1)c1nc2ccccc2[nH]1)c1cccc([N+](=O)[O-])c1 (centres undefined) the results were Six1-Eya2 blk -16, CtBP-E1A inh -11, D2 agonist 1.5, D2 PAM -7, gsp antag -12% and gsp ag -17%[15.4 µM].
For CC(=O)OC1COC(n2ccc3cc([N+](=O)[O-])ccc32)C(OC(C)=O)C1OC(C)=O (centres undefined) the results were Six1-Eya2 blk 0, CtBP-E1A inh 3, D2 agonist -2.5, D2 PAM -27, gsp antag 4% and gsp ag -19%.
For Cc1ccc(C(=O)c2ccc(N3CCN(C)CC3)c([N+](=O)[O-])c2)cc1 the results were Six1-Eya2 blk -23, CtBP-E1A inh -19, D2 agonist -3.7, D2 PAM -33, gsp antag 3% and gsp ag 13%.
`O=[N+]([O-])c1cccc(C=NN=C2c3ccccc3-c3ccccc32)c1` gave Six1-Eya2 blk -17, CtBP-E1A inh -16, D2 agonist 5.8, D2 PAM 6, gsp antag -3% and gsp ag 6%.
